Assay outcomes deposited in PubChem BioAssay by Broad Institute.
FGF22 binding = FGF22 (human) thermal shift binding. Q9HCT0. recombinant FGF22 thermal shift, SYPRO orange fluorescence; percent of sucrose octasulfate shift, DMSO zero. calls only at 9.99 µM. 1.5% of 340,000 active;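 active = melting point raised past a set limit in the mean and every replicate; three in four hits are not shown here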
Target sequence (Q9HCT0 whole entry, looked up): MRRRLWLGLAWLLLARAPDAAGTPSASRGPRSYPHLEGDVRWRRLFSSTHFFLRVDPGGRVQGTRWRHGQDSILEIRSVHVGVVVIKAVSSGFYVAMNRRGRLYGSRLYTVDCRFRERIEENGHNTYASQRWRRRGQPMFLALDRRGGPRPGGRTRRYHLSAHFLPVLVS
Calls only; i = inactive; + = active, no number. An excerpt (hit frequency here may not be typical).

| Molecule | FGF22 binding |
| --- | --- |
| C[C@@H]1CCCCO[C@@H](CN(C)C(=O)CCC(F)(F)F)[C@@H](C)CN([C@@H](C)CO)C(=O)c2cc(NC(=O)Nc3ccc4c(c3)OCO4)ccc2O1 | i |
| O=C(C[C@H]1CC[C@H]2[C@@H](COC[C@@H](O)CN2Cc2ccc(F)cc2)O1)NCCc1ccccc1 | i |
| Cc1ccc(S(=O)(=O)N(C)C[C@H]2Oc3c(NC(=O)Nc4cccc5ccccc45)cccc3C(=O)N([C@H](C)CO)C[C@@H]2C)cc1 | i |
| O=C(NCC[C@H]1CC[C@H](NC(=O)c2ccccc2F)[C@@H](CO)O1)c1ccc2c(c1)OCO2 | i |
| C[C@@H]1CN([C@H](C)CO)C(=O)c2cccc(NC(=O)c3ccncc3)c2O[C@H]1CN(C)C(=O)Nc1ccccc1 | i |
| C[C@H](CO)N1C[C@H](C)[C@H](CN(C)S(=O)(=O)c2cn(C)cn2)Oc2ncc(C#Cc3ccccc3)cc2C1=O | i |
| C/C=C/c1ccc([C@H]2[C@@H](CO)N3CCCCN(C(=O)c4ccc(F)cc4)C[C@@H]23)cc1 | i |
| Cc1noc(C)c1NC(=O)N(C)C[C@H]1Oc2c(NC(=O)C3CCOCC3)cccc2C(=O)N([C@H](C)CO)C[C@@H]1C | i |
| C[C@H]1CN([C@@H](C)CO)S(=O)(=O)c2ccc(C#Cc3cccnc3)cc2O[C@H]1CN(C)C(=O)CN(C)C | i |
| COc1ccc(NC(=O)N[C@H]2CC[C@H](CCn3cc(-c4ccccc4)nn3)O[C@@H]2CO)cc1 | i |
| CNC[C@@H]1Oc2ccc(NS(C)(=O)=O)cc2CC(=O)N([C@H](C)CO)C[C@H]1C | i |
| C[C@@H]1CCCCO[C@@H](CN(C)S(=O)(=O)c2ccccc2)[C@@H](C)CN([C@@H](C)CO)C(=O)c2cc(NC(=O)c3ccccc3)ccc2O1 | i |
| O=C([C@@H]1N[C@@H]2c3ccc(-c4ccccc4)c(=O)n3C[C@@H]2[C@H]1CO)N1CCOCC1 | i |
| O=C(CCCCCCC(=O)Nc1ccc(CO)cc1)NOCc1ccccc1 | i |
| Cc1cc(C(=O)Nc2cccc3c2O[C@@H](CN(C)Cc2ccc(C(=O)Nc4ccccc4N)cc2)[C@@H](C)CN([C@H](C)CO)C3=O)n(C)n1 | i |
| CC(=O)N(C)C[C@@H]1Oc2cc(C#Cc3cccc(F)c3)ccc2S(=O)(=O)N([C@H](C)CO)C[C@H]1C | i |
| COc1ccc(S(=O)(=O)Nc2ccc3c(c2)CC(=O)N([C@@H](C)CO)C[C@@H](C)[C@@H](CN(C)C)O3)cc1 | i |
| Cc1noc(C)c1S(=O)(=O)Nc1ccc2c(c1)C(=O)N([C@H](C)CO)C[C@H](C)[C@H](CN(C)C(=O)CCCN(C)C)OCCCC[C@@H](C)O2 | i |
| Cc1cccc(-c2ccc([C@@H]3[C@@H](CO)N4CCCCN(C(=O)c5ccncc5)C[C@H]34)cc2)c1 | i |
| C[C@@H]1CN([C@H](C)CO)C(=O)c2cc(C#Cc3cccnc3)cnc2O[C@H]1CN(C)C(=O)CN(C)C | i |
| CCS(=O)(=O)Nc1ccc2c(c1)C(=O)N(C)[C@@H]1CC[C@@H](CC(=O)OC)O[C@@H]1CO2 | i |
| C/C=C/c1ccc([C@@H]2[C@H](C#N)N(C(=O)NC3CCCCC3)[C@H]2CO)cc1 | i |
| CO[C@@H]1CN(C)C(=O)c2cc(NC(=O)Nc3ccc(Cl)cc3)ccc2OC[C@@H](C)NC[C@@H]1C | i |
| C[C@H](CO)N1C[C@H](C)[C@@H](CN(C)CC2CCCCC2)OCCCC[C@H](C)Oc2ccc(NC(=O)C3CCCCC3)cc2C1=O | i |
| CCCNC(=O)C[C@H]1CC[C@H]2[C@@H](COc3ccc(NC(=O)Nc4ccc(C#N)cc4)cc3C(=O)N2C)O1 | i |
| COCCNC(=O)C[C@@H]1C[C@H]2c3cc(NC(=O)Nc4ccccc4F)ccc3O[C@H]2[C@H](CO)O1 | i |
| COc1ccc2c3c(n(C)c2c1)[C@@H](CO)N(Cc1ccccc1Cl)CC31CCN(C(C)=O)CC1 | i |
| CCCN(C)C[C@H]1OCCCC[C@@H](C)Oc2ccc(NC(=O)Nc3ccc(C(F)(F)F)cc3)cc2C(=O)N([C@H](C)CO)C[C@H]1C | i |
| CN(C)C(=O)c1cccc(-c2ccc([C@H]3[C@@H](CO)N4CCCCN(CCC(F)(F)F)C[C@H]34)cc2)c1 | i |
| CCS(=O)(=O)Nc1ccc2c(c1)C(=O)N(C)[C@@H]1CC[C@H](CC(=O)NCCCN3CCOCC3)O[C@@H]1CO2 | i |
| CC(=O)N(C)C[C@H]1Oc2ncc(C#Cc3ccncc3)cc2C(=O)N([C@@H](C)CO)C[C@@H]1C | i |
| C[C@@H]1CN([C@H](C)CO)C(=O)Cc2cc(NC(=O)c3ccncc3)ccc2O[C@@H]1CN(C)Cc1ccc(Oc2ccccc2)cc1 | i |
| COc1cccc(-c2ccc3c(c2)[C@H]2[C@H](CCN2C(=O)c2ccccc2F)[C@H](CO)N3C)c1 | i |
| C[C@@H]1CN([C@@H](C)CO)C(=O)c2cccc(NS(=O)(=O)c3ccc(F)cc3)c2O[C@@H]1CN(C)S(=O)(=O)c1ccc(F)cc1 | i |
| O=C(C[C@H]1CC[C@H](NC(=O)NC2CCCCC2)[C@@H](CO)O1)NCc1ccc(F)cc1 | i |
| C[C@@H]1CCCCO[C@@H](CN(C)S(=O)(=O)c2cn(C)cn2)[C@H](C)CN([C@@H](C)CO)C(=O)c2cc(NC(=O)Cc3ccccc3)ccc2O1 | i |
| C[C@@H]1CCCCO[C@@H](CN(C)C(=O)C2CCCCC2)[C@@H](C)CN([C@H](C)CO)C(=O)c2cc(NS(=O)(=O)c3ccc(F)cc3)ccc2O1 | i |
| COc1ccccc1NC(=O)N1C[C@H](O)COC[C@H]2O[C@H](CC(=O)NCc3ccccc3)CC[C@@H]21 | i |
| O=C(C[C@@H]1CC[C@H](NC(=O)C2CCOCC2)[C@H](CO)O1)NCc1ccccc1Cl | i |
| Cc1cccc(S(=O)(=O)N2CCCCN3[C@H](CO)[C@@H](c4ccc(C#CC5CC5)cc4)[C@H]3C2)c1 | i |
| O=C(c1cccc(F)c1)N1CCCCN2[C@@H](CO)[C@H](c3ccc(-c4ccncc4)cc3)[C@@H]2C1 | i |
| COc1cccc(S(=O)(=O)N[C@@H]2C=C[C@@H](CC(=O)NC3CCC3)O[C@@H]2CO)c1 | i |
| CO[C@@H]1CN(C)C(=O)c2ccc(NC(C)=O)cc2OC[C@@H](C)N(Cc2cncnc2)C[C@H]1C | i |
| Cc1ccc(S(=O)(=O)N(C)C[C@@H]2Oc3c(NC(=O)Nc4ccc5c(c4)OCO5)cccc3C(=O)N([C@@H](C)CO)C[C@@H]2C)cc1 | i |
| O=S(=O)(N[C@@H]1CC[C@@H](CCn2cc(C3CC3)nn2)O[C@H]1CO)c1ccc(Cl)cc1 | i |
| Cc1nn(C)cc1NC(=O)C[C@H]1CC[C@@H]2[C@H](COc3ccc(NC(=O)C4CCOCC4)cc3C(=O)N2C)O1 | i |
| COc1ccc(S(=O)(=O)Nc2ccc3c(c2)C(=O)N([C@@H](C)CO)C[C@H](C)[C@@H](CN(C)C(=O)Nc2cccc4ccccc24)O3)cc1 | i |
| COc1cccc(S(=O)(=O)N2C[C@H](O)COC[C@H]3O[C@H](CC(=O)NCCCN4CCOCC4)CC[C@@H]32)c1 | i |
| C[C@H]1CN([C@@H](C)CO)C(=O)c2cc(NC(=O)Nc3ccc4c(c3)OCO4)ccc2O[C@H]1CN(C)C | i |
| O=C(c1ccccc1)N1C[C@@H]2[C@H](c3ccccc31)[C@H](CO)N2C(=O)c1cccc(F)c1 | i |

The list goes on; the last four above are carried over.
| Molecule | FGF22 binding |
| --- | --- |
| COc1ccc(S(=O)(=O)Nc2ccc3c(c2)C(=O)N([C@@H](C)CO)C[C@H](C)[C@@H](CN(C)C(=O)Nc2cccc4ccccc24)O3)cc1 | i |
| COc1cccc(S(=O)(=O)N2C[C@H](O)COC[C@H]3O[C@H](CC(=O)NCCCN4CCOCC4)CC[C@@H]32)c1 | i |
| C[C@H]1CN([C@@H](C)CO)C(=O)c2cc(NC(=O)Nc3ccc4c(c3)OCO4)ccc2O[C@H]1CN(C)C | i |
| O=C(c1ccccc1)N1C[C@@H]2[C@H](c3ccccc31)[C@H](CO)N2C(=O)c1cccc(F)c1 | i |
| C[C@@H]1CN([C@H](C)CO)C(=O)c2cc(NC(=O)Nc3ccccc3)ccc2O[C@@H]1CN(C)Cc1ccc(C(=O)Nc2ccccc2N)cc1 | i |
| C[C@@H]1CN([C@H](C)CO)C(=O)c2cccc(N(C)C)c2O[C@H]1CN(C)Cc1ccc(C(=O)O)cc1 | i |
| C[C@@H]1CN([C@@H](C)CO)C(=O)c2cccc(NC(=O)c3cnccn3)c2O[C@@H]1CN(C)C | i |
| COc1ccccc1S(=O)(=O)N[C@@H]1CC[C@H](CCn2cc(C3CC3)nn2)O[C@H]1CO | i |
| O=C(c1ccc(F)cc1)N1CCCCN2[C@H](CO)[C@@H](c3ccc(-c4ccccc4)cc3)[C@H]2C1 | i |
| CN(C)CC#Cc1ccc([C@@H]2[C@H](CO)N3CCCCN(C(=O)C4CCC4)C[C@@H]23)cc1 | i |
| C[C@@H]1CCCCO[C@@H](CN(C)S(=O)(=O)c2cn(C)cn2)[C@H](C)CN([C@@H](C)CO)C(=O)c2cc(NC(=O)CCCN(C)C)ccc2O1 | i |
| C[C@H]1CCCCO[C@@H](CN(C)C(=O)Cc2ccccc2)[C@@H](C)CN([C@@H](C)CO)C(=O)c2cc(NS(=O)(=O)c3ccc(F)cc3)ccc2O1 | i |
| COc1ccc(NC(=O)Nc2ccc3c(c2)C(=O)N([C@H](C)CO)C[C@H](C)[C@@H](CN(C)Cc2ccc(-c4ccccc4)cc2)O3)cc1 | i |
| C[C@@H]1CN([C@H](C)CO)C(=O)c2cc(-c3ccc(F)cc3)cnc2O[C@@H]1CN(C)C(=O)Cc1ccccc1 | i |
| CCN1[C@H](C(=O)NCc2ccccc2)[C@@H](CO)[C@@H]2Cn3c(ccc(-c4ccccc4OC)c3=O)[C@@H]21 | i |
| C[C@H]1CN([C@@H](C)CO)C(=O)c2cc(NC(=O)CCCN(C)C)ccc2O[C@H]1CN(C)Cc1ccc(-c2ccccc2)cc1 | i |
| CCCC#Cc1ccc([C@@H]2[C@@H](CO)N3CCCCN(S(=O)(=O)Cc4ccccc4)C[C@H]23)cc1 | i |
| CO[C@@H]1CN(C)C(=O)c2cccc(C#N)c2OC[C@H]2O[C@@H](CC[C@H]2OC)CCN(C)C(=O)[C@H]1C | i |
| O=C(C[C@@H]1CC[C@H](NC(=O)C2CCOCC2)[C@@H](CO)O1)Nc1ccc(-c2ccccc2)cc1 | i |
| C[C@@H]1CCCCO[C@H](CN(C)S(=O)(=O)c2ccc(F)cc2)[C@@H](C)CN([C@H](C)CO)C(=O)c2cc(NS(=O)(=O)c3ccc(F)cc3)ccc2O1 | i |
| COc1ccc(NC(=O)N(C)C[C@H]2Oc3ccc(NC(=O)CCCCCC(=O)Nc4ccccc4N)cc3C(=O)N([C@@H](C)CO)C[C@H]2C)cc1 | i |
| O=C(C[C@H]1C[C@@H]2c3cc(NS(=O)(=O)c4ccc(F)cc4)ccc3O[C@@H]2[C@H](CO)O1)NCc1ccc(Cl)cc1 | i |
| CC(C)C(=O)Nc1ccc2c(c1)C(=O)N(C)[C@H]1CC[C@@H](CC(=O)N[C@@H](C)c3ccccc3)O[C@H]1CO2 | i |
| Cc1ccc(S(=O)(=O)N(C)C[C@@H]2Oc3ccc(NC(=O)CCN4CCOCC4)cc3C(=O)N([C@H](C)CO)C[C@@H]2C)cc1 | i |
| O=C(N[C@H]1c2ccccc2C[C@H]1O)C1=C[C@H](c2coc3ccccc3c2=O)C[C@H](OCCCCO)O1 | i |
| Cc1ccccc1-c1ccc2c(c1)O[C@H](CN(C)CC1CC1)[C@H](C)CN([C@H](C)CO)S2(=O)=O | + |
| C[C@@H]1CN([C@H](C)CO)C(=O)c2cc(NC(=O)CCCN(C)C)ccc2O[C@H]1CN(C)C | i |
| C/C=C/c1ccc([C@H]2[C@@H](CO)N(C(=O)C3CCCCC3)C23CN(C(=O)NC(C)C)C3)cc1 | i |
| CN1CCN(C(=O)C[C@H]2C[C@H]3c4cc(NC(=O)Nc5ccccc5)ccc4O[C@H]3[C@@H](CO)O2)CC1 | i |
| O=C(C[C@H]1CC[C@@H]2[C@H](COC[C@@H](O)CN2C(=O)Nc2cc(Cl)cc(Cl)c2)O1)NCC1CCCCC1 | i |
| CCC(=O)N1CCCCN2[C@H](CO)[C@@H](c3ccc(-c4cccc(C(=O)N(C)C)c4)cc3)[C@@H]2C1 | i |
| O=C(C[C@@H]1CC[C@H](NC(=O)Nc2ccc(F)cc2)[C@H](CO)O1)NCc1ccccn1 | i |
| COCCNC(=O)C[C@H]1C[C@@H]2c3cc(NC(=O)C4CCC4)ccc3O[C@@H]2[C@@H](CO)O1 | i |
| N#Cc1ccc(S(=O)(=O)NCC2CCN(C(=O)C(=O)c3cc4ccccc4o3)CC2)cc1 | i |
| C[C@@H]1CCCCO[C@@H](CN(C)C(=O)C2CCCCC2)[C@@H](C)CN([C@@H](C)CO)C(=O)c2cc(NC(=O)c3ccccc3)ccc2O1 | i |
| C[C@H]1CN([C@@H](C)CO)C(=O)Cc2cc(NC(=O)C3CCCCC3)ccc2O[C@H]1CN(C)C(=O)Nc1cccc2ccccc12 | i |

2 compounds drawn at random from the list so far:
| Molecule | FGF22 binding |
| --- | --- |
| CCS(=O)(=O)Nc1ccc2c(c1)C(=O)N(C)[C@@H]1CC[C@@H](CC(=O)OC)O[C@@H]1CO2 | i |
| COCCNC(=O)C[C@H]1C[C@@H]2c3cc(NC(=O)C4CCC4)ccc3O[C@@H]2[C@@H](CO)O1 | i |

2 of these compounds in a different format.
N#Cc1ccc(S(=O)(=O)NCC2CCN(C(=O)C(=O)c3cc4ccccc4o3)CC2)cc1
  FGF22 binding: i
C[C@@H]1CCCCO[C@@H](CN(C)C(=O)C2CCCCC2)[C@@H](C)CN([C@@H](C)CO)C(=O)c2cc(NC(=O)c3ccccc3)ccc2O1
  FGF22 binding: i
